# CtBP-E1A blk – inhibitors of CtBP/E1A interaction; AlphaScreen GST-E1A/His-CtBP binding, 1536-well; hits give low values; control for the full effect not named in the record; activity change, % (no concentration beside the values); 340,000 compounds, 0.49% hits; AID 651724; in the data active means activity change below about -65%; inconclusive means about -30% to -65%; inactive means above about -30%; note: % is set by controls: 0 for no effect and ±100 for the full control effect
#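 In 5 uL wells, 23 nL compound meets equimolar GST-E1A and His-CtBP (5X stock 125 nM each) for 2 h, 37 °C. Beads (5X, 50 ug/mL) then 1 h, 37 °C, dark.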
# ClpP mod – qHTS Assay for Activators of ClpP; ATP-dependent Clp protease proteolytic subunit (Bacillus subtilis (strain 168)), P80244; purified B. subtilis ClpP, FRET peptide cleavage, 20 min; Potency, µM (series often up to 57.5 µM), inactives show at the highest dose activity change, negative = active; 340,000 compounds, 1.9% hits; active = well fitted falling curve with a large enough effect; inconclusive = small, poorly fitted or top-dose-only effect; inactive = no such curve, though single readings can be large or run the other way; note: potency is the fitted concentration of half-maximal effect; the source files actives as falling curves though it sought activators and does not explain the sign; nearly all actives have a fitted effect of over 65% in size; many hits overshoot -100%
# Target sequence (P80244 whole entry, looked up): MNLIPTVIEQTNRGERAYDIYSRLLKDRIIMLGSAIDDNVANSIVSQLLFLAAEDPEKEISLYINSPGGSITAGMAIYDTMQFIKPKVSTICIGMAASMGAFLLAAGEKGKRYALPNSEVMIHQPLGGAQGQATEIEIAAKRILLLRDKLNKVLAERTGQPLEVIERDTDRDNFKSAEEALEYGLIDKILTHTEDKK
#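 FRET quenching reversal measured ClpP activation: 10 microg/mL B. subtilis ClpP at pH 8 with the FRET-FV decapeptide, read at 430 nm after 320 nm excitation. The 20-min minus 0-min signal was scaled between DMSO/no-enzyme wells and ADEP (5.8 microM final).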
# gsp antag – gsp mutant antagonism; 340,000 compounds, 0.4% hits; gsp-mutant cells, cAMP HTRF, 30 min; control for the full effect not named in the record; Potency, µM (series often up to 76.9 µM), for inactives: at the top dose activity change, negative = inhibition, actives largely listed as inhibitors; AID 624288; active = falling curve of any shape with a large fitted effect; inconclusive = falling curve, mostly with a smaller effect; inactive = flat or rising curve; cell line not stated here;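 note: intracellular cAMP measured with PDE inhibitor Ro 20-1724 present during compound exposure; potency is the fitted concentration of half-maximal effect; % is set by controls: 0 for no effect and ±100 for the full control effect; nearly all actives have a fitted effect of over 65% in size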
#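 HTRF cAMP read-out (cAMP-d2 plus anti-cAMP antibody-K in lysis buffer, 30 min RT). Before lysis, cells are exposed to compounds with […] for 30 min at 37C in DPBS containing Ca/Mg, BSA and Tween 20.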
# Menin MLL FP FL – displaces fluorescein MLL peptide from human menin | FP activity change, % at 61.4 µM | 290,000 tested, under 10 active | Fluorescence polarization, fluorescein-MLL peptide displacement from menin; inconclusive = falling polarisation curve, or a change in total fluorescence; inactive = total fluorescence flat and polarisation flat or rising; no compound was filed as active; the % refers to the polarisation; negative = inhibition;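 note: % of control where 0% means no effect; inhibitors lower the polarisation; unlabelled MLL peptide was the positive control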
# TRPV1 PAM – potentiators of human vanilloid receptor 1 (TRPV1) | TRPV1-expressing cells, Fluo-8 calcium influx, capsaicin EC20 potentiation; host cell line not named in the record; control for the full effect not named in the record | potentiation, % at 8.33 µM | 320,000 compounds, 0.02% hits | AID 540277 | Q8NER1; active means potentiation above 80%; inconclusive means 30% to 80%; inactive means below 30%; note: 0% is about no effect
# Target sequence (Q8NER1 whole entry, looked up): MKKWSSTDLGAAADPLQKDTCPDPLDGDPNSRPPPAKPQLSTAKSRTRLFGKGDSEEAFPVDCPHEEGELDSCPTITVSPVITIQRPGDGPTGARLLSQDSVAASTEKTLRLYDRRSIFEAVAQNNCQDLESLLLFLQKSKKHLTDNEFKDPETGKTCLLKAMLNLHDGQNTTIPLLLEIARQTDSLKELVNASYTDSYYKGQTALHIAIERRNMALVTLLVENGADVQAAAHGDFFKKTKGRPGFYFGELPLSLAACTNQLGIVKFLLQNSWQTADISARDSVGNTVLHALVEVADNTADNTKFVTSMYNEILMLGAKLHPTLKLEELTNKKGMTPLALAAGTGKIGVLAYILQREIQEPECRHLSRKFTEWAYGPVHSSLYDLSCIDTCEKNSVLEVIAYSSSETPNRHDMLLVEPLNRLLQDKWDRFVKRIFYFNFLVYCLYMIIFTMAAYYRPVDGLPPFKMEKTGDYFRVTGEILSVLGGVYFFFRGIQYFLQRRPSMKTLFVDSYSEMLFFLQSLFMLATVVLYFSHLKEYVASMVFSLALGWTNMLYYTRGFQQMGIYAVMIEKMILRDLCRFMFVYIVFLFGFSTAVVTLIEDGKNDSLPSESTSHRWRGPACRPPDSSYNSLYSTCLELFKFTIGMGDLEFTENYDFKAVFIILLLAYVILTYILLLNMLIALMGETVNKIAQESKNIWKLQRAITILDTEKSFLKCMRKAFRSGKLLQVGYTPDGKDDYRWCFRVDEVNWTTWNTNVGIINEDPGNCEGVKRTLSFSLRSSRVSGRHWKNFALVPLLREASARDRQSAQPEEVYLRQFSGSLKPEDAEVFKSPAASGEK
#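 Fluo-8 calcium influx in TRPV1-expressing cells, kinetic read (ex 480/em 520 nm). Compound added and read 3 min for agonist activity, followed by capsaicin at EC20 final and 2 min further read for enhancement.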
# gsp agonist – activates gsp, the McCune-Albright syndrome mutation; Potency, µM (highest dose often 76.9 µM), for inactives: top-dose activation (cAMP increase), most hits filed as activators; gsp mutant cells, cAMP HTRF, 30 min; control for the full effect not named in the record; 340,000 compounds, 0.13% hits; AID 624287; active = well fitted activation curve with a large enough effect; inconclusive = small, poorly fitted or top-dose-only effect, or another doubt; inactive = no such curve, though single readings can be large or run the other way; cell line not stated here;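 note: phosphodiesterase inhibitor Ro 20-1724 added with compounds to block cAMP breakdown; potency is the fitted concentration of half-maximal effect; nearly all actives have a fitted effect of over 60% in size; about a fifth of the inactives were tested at one dose only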
#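 Cells stably selected in G418 were plated at 2000/well, grown 16-24 hr, then given compounds in DMSO with the PDE inhibitor […] (300 uM solution added) for 30 min at 37C; cAMP was read by HTRF.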
# Sfp inh – blocks B. subtilis Sfp PPTase activity; AID 1490; Biochemical Sfp PPTase activity, qHTS; Potency, µM, inactives show max response, negative = inhibition, usual class: inhibitors; 310,000 compounds, 3.5% hits; active = well fitted inhibition curve with a large enough effect; inconclusive = small, poorly fitted or top-dose-only effect, or another doubt; inactive = no such curve, though single readings can be large or run the other way;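 note: the enzyme is Sfp with the accession as filed and its product quenches rhodamine fluorescence; potency is the fitted concentration of half-maximal effect; 0% = enzyme reaction without inhibitor and -100% = no enzyme wells; top concentration of the series not given in the record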
#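 Step 1, compound plus 15 nM Sfp-PPTase, 15 min, room temperature. Step 2, add rhodamine-CoA (5 uM) and BHQ-2-YbbR (12.5 uM). Step 3, read 525/598 nm fluorescence at 0 and 30 min.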
# Active calls of the source: *; u = inconclusive; x = no result given; & = joins results of further samples; [ ] = dose if it differs, or a comment.
SMILES,CtBP-E1A blk,ClpP mod,gsp antag,Menin MLL FP FL,TRPV1 PAM,gsp agonist,Sfp inh
COC(=O)CSc1nc(N2CCOCC2)c2c(c1C#N)CC(C)(C)N(C)C2,0,-14%,-3%,2.2,-4,8%,21%
COc1cc(S(=O)(=O)N2CCN=C2c2ccccc2)ccc1F,6,0.3%,5%,3.3,1,1%,7%
COc1cc(C(=O)OCCNC(=O)c2cccnc2)cc(OC)c1OC,-4,2.3%,0%,x,x,10%[15.4 µM],x
CC1CCCC(C)N1C(=O)c1ccccc1Nc1ccc(SC(F)F)cc1 (stereo not drawn),-6,-16%,-15%,1.3,-23,0%,13%
Nc1nc(-c2ccc(Cl)cc2)c(N=Nc2ccc(S(=O)(=O)N3CCOCC3)cc2)s1,-8,-0.1%,-6%,5.4,-18,19%[15.4 µM],-4%
O=C1OC(N2C(=O)CC[C@H]2C(=O)Nc2ccc(Br)cc2F)c2ccccc21 (stereo partly drawn),1,-0.4%,2%,0.9,7,x,u
Cc1nc(C)c(C(=O)NNS(=O)(=O)c2ccc3ccccc3c2)s1,21,x,-21%,1.9,-2,-5%[15.4 µM],6%
COCCCNC(=S)NCCc1ccc(F)cc1,x,-0.6%,-6%,1.8,-9,-44%[inhibitor],15%
CCn1cc(Br)c(C(=O)Nc2ccccc2C(=O)OC)n1,0,x,-3%,-1.2,1,11%,-6%
COC(=O)c1ccccc1NC(=O)C1CC(=O)N(c2ccc(C)cc2)C1 (stereo not drawn),2,-4.4%,1%,2.4,4,18%,8%
N#C/C(=C\c1ccc(N2CCOCC2)cc1)c1ccccc1,4,1.5%,u,x,-11,16%,-19%
COc1ccc(CN(C(C)=O)c2cccc(C)c2C)cc1,0,-1.1%,11%,4.1,-7,-22%,8%
CCOC(=O)[C@@H]1[C@H]2COc3ccc(Br)cc3[C@H]2N2C(=O)N(c3ccc(Cl)cc3)C(=O)[C@@]12C,0,0.7%,3%,13,-3,x,10%
COc1ccc(N=C2SC(C(=O)N3CCN(c4ccc([N+](=O)[O-])cc4)CC3)CC(=O)N2C)cc1 (stereo not drawn),-1,1.1%,-20%,7.0,-1,u,-5%
COc1cc(C)c(NC(c2ccccc2)c2ccccc2)cc1OC,-30,-1.6%,-5%,-4.3,0,12%[15.4 µM],-6%

# Some of these compounds in order of length of the SMILES, falling:
SMILES,CtBP-E1A blk,ClpP mod,gsp antag,Menin MLL FP FL,TRPV1 PAM,gsp agonist,Sfp inh
CCOC(=O)[C@@H]1[C@H]2COc3ccc(Br)cc3[C@H]2N2C(=O)N(c3ccc(Cl)cc3)C(=O)[C@@]12C,0,0.7%,3%,13,-3,x,10%
O=C1OC(N2C(=O)CC[C@H]2C(=O)Nc2ccc(Br)cc2F)c2ccccc21 (stereo partly drawn),1,-0.4%,2%,0.9,7,x,u
COC(=O)CSc1nc(N2CCOCC2)c2c(c1C#N)CC(C)(C)N(C)C2,0,-14%,-3%,2.2,-4,8%,21%
COC(=O)c1ccccc1NC(=O)C1CC(=O)N(c2ccc(C)cc2)C1 (stereo not drawn),2,-4.4%,1%,2.4,4,18%,8%
Cc1nc(C)c(C(=O)NNS(=O)(=O)c2ccc3ccccc3c2)s1,21,x,-21%,1.9,-2,-5%[15.4 µM],6%
CC1CCCC(C)N1C(=O)c1ccccc1Nc1ccc(SC(F)F)cc1 (stereo not drawn),-6,-16%,-15%,1.3,-23,0%,13%
COc1cc(C(=O)OCCNC(=O)c2cccnc2)cc(OC)c1OC,-4,2.3%,0%,x,x,10%[15.4 µM],x
COc1cc(S(=O)(=O)N2CCN=C2c2ccccc2)ccc1F,6,0.3%,5%,3.3,1,1%,7%
N#C/C(=C\c1ccc(N2CCOCC2)cc1)c1ccccc1,4,1.5%,u,x,-11,16%,-19%
COc1ccc(CN(C(C)=O)c2cccc(C)c2C)cc1,0,-1.1%,11%,4.1,-7,-22%,8%
COCCCNC(=S)NCCc1ccc(F)cc1,x,-0.6%,-6%,1.8,-9,-44%[inhibitor],15%

# Further results
SMILES,CtBP-E1A blk,ClpP mod,gsp antag,Menin MLL FP FL,TRPV1 PAM,gsp agonist,Sfp inh
COc1ccc(N(C(=O)c2ccco2)C(C(=O)NC2CCCC2)c2ccncc2)cc1OC (stereo not drawn),6,x,4%,x,-5,-9%[15.4 µM],15%
O=C(/C=C/c1ccc([N+](=O)[O-])cc1)N1CCN(c2ccccc2F)CC1,-5,0.6%,20%,0.7,-3,-31%[15.4 µM],-9%
CC(NC(=O)Cc1cccs1)c1ccncc1 (stereo not drawn),-3,0.2%,0%,6.8,-2,-7%,u
O=C(Cn1c(=O)n(Cc2ccco2)c(=O)c2c3c(sc21)CCCC3)Nc1ccccc1,-2,0.7%,-3%,3.8,u,2%,u
N#Cc1ccsc1NC(=O)C1CC(=O)N(Cc2ccccc2)C1 (stereo not drawn),1,x,7%,x,0,11%[15.4 µM],x
O=C(NCS(=O)(=O)c1ccccc1)c1ccccc1,5,1.2%,3%,1.0,-4,-33%[inhibitor],8%
COc1ccc(N(CC(=O)NC2CCCC2)C(=O)CS(=O)CC(=O)Nc2ccc3c(c2)OCO3)cc1 (stereo not drawn),5,1.3%,8%,-0.4,-2,-52%[inhibitor],28%
O=C(CSc1nnc(CCCN2C(=O)c3cccc4cccc(c34)C2=O)n1-c1ccccc1)NCCCN1CCOCC1,0,0.5%,9%,-0.3,-6,-4%[15.4 µM],-7%
O=C(CN1C(=O)CNC1=O)Nc1cc(Cl)cc(Cl)c1,0,-2.4%,7%,x,x,-7%[15.4 µM],x
O=C(CCC(=O)Nc1cccc([N+](=O)[O-])c1)N/N=C/c1cccs1,-12,-1.7%,-1%,x,17,u,0%
COc1ccc(S(=O)(=O)n2ccc(-c3ccc4c(c3)CCC(C)(C)O4)n2)cc1,4,x,-9%,1.3,2,10%[15.4 µM],9%
COc1ccc(-c2noc(CN(C)C(=O)c3ccco3)n2)cc1,-13,x,5%,1.7,3,-2%[15.4 µM],10%
Cc1ccc(CN2CCN(/N=C/c3ccc(C)s3)CC2)c(C)c1,3,1.5%,0%,6.7,4,-34%[inhibitor],19%
O=C(Nc1cccc(Cl)c1)N(Cc1nc2ccccc2c(=O)[nH]1)C1CCCC1,-3,-8.2%,0%,-1.1,8,24%,2%
O=C(c1ccc2c(c1)OCO2)N1CCN(C(=O)c2ccco2)CC1,5,0.2%,-3%,-2.4,29,0%,6%
Cc1cc([N+](=O)[O-])nn1CCCC(=O)NCc1ccc(F)cc1,3,x,6%,0.8,-10,0%,24%
COc1ccc(-c2nn(-c3ccccc3)cc2C(=O)O)cc1,4,-18%,-13%,3.8,x,4%,-5%
O=C(Nc1cccc(C(=O)O)c1)/C(=C\c1cccc([N+](=O)[O-])c1)NC(=O)c1ccc(Br)cc1,8,0.2%,x,x,x,-6%,x
Cc1ccc(C)c(S(=O)(=O)N2CCCCC2CCNC(=O)C(=O)NC2CCCC2)c1 (stereo not drawn),6,2.2%,-7%,x,-13,-39%[inhibitor],x
COc1ccc(S(=O)(=O)N2CCN(CCC(=O)Nc3ccccc3F)CC2)cc1,2,-6.0%,1%,-0.4,-16,u,11%
O=C(Nc1ccccc1Br)c1c(F)cccc1Cl,0,-1.4%,11%,-1.2,0,1%,12%
O=C(Nc1ccccc1N1CCOCC1)c1cc(F)cc(F)c1,5,x,-5%,9.6,-4,-21%,8%
Cc1nc2cc(NC(=O)CS(=O)(=O)c3ccc(F)cc3)ccc2s1,5,1.0%,0%,x,2,6%,x
O=C(O)c1cccnc1SCC(=O)N1CCCCCC1,43,1.0%,1%,u,-21,u,5%
CC[C@H](C)[C@@H](NC(=O)O[C@@H]1C(=O)c2cc(OC)ccc2O[C@H]1c1ccc(OC)c(Br)c1)C(=O)OC,-1,u,-14%,-3.2&-0.4,8,3%,11%&7%
CC(=O)C1C(=O)C=C(c2ccco2)CC1c1ccccc1 (stereo not drawn),5,2.2%,-9%,4.8,-5,-2%,-10%
CCOC(=O)c1c(N)n(CC(C)NC(=O)C2CC2)c2nc3ccccc3nc12 (stereo not drawn),x,x,x,0.8,3,x,0%
COc1ccc(C(=O)O/N=C/c2ccc(S(=O)c3ccc(Cl)cc3)nc2)cc1 (stereo not drawn),0,-1.7%,-2%,3.6,1,12%,1%
COc1ccc(C(C(=O)NC(C)(C)C)N(C(=O)CCC(=O)Nc2cc(C)on2)c2c(C)cccc2C)cc1 (stereo not drawn),3,x,-6%,-3.4,4,-21%,10%
COc1ccc2nc3oc(C(=O)N4CC(C)CC(C)C4)cc3cc2c1 (stereo not drawn),-3,4.2%,-26%,x,-37,u,1%

# For reference, some entries already given:
SMILES,CtBP-E1A blk,ClpP mod,gsp antag,Menin MLL FP FL,TRPV1 PAM,gsp agonist,Sfp inh
Cc1cc([N+](=O)[O-])nn1CCCC(=O)NCc1ccc(F)cc1,3,x,6%,0.8,-10,0%,24%
COc1ccc(-c2nn(-c3ccccc3)cc2C(=O)O)cc1,4,-18%,-13%,3.8,x,4%,-5%

# Remaining list, next part.
SMILES,CtBP-E1A blk,ClpP mod,gsp antag,Menin MLL FP FL,TRPV1 PAM,gsp agonist,Sfp inh
Cc1ccc2[nH]c(CN3CCC(CO)(CC4CCCCO4)CC3)c(C)c2c1 (stereo not drawn),-19,x,2%,2.6,8,5%[15.4 µM],8%
CC(CCc1ccccc1)NC(=O)c1nnc(Cc2ccc(Cl)cc2)o1 (stereo not drawn),5,-0.2%,-5%,-1.0,-13,-7%,14%
O=C(Nc1ccc(C(F)(F)F)cc1)C1=NN(C2CCS(=O)(=O)C2)C(=O)CC1 (stereo not drawn),x,-1.0%,11%,x,-5,-29%,x
O=C(CN1C(=O)NC2(CCCCC2)C1=O)NC1CCCc2ccccc21 (stereo not drawn),-5,-1.1%,17%,2.4,-11,-22%,7%

# Source: PubChem (National Center for Advancing Translational Sciences (NCATS))
